VEEV TC-83 Vero = inhibitors of VEEV TC-83 cytopathic effect, confirmation, Vero cells (AID 588727); Vero cells, VEEV TC-83 cytopathic effect inhibition; higher % means a stronger effect; 0.13% of 350,000 active; inhibition, % at 20 µM; hits with a dose series show IC50 in µM; in the data active = a potency from the dose series; inconclusive = inhibition mostly from about 14% at the one dose, without a potency; inactive = the rest, 99 in 100 with inhibition below about 12%; note: strong numbers were not always called active
M. tuberculosis HTS = M. tuberculosis growth inhibition, HTS (AID 449762); M. tuberculosis H37Rv growth inhibition, 7H9 media; higher % means a stronger effect; inhibition, % at 25 µM; hits with a dose series show IC50 in µM; 0.59% of 330,000 active; in the data active = a potency from the dose series; inconclusive = inhibition above about 70% without an active follow-up result;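 note: bacterial growth assessed after seven days of incubation; strong numbers were not always called active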
tuberculosis growth = growth inhibition of non-replicating M. tuberculosis (AID 488890); inhibition, % at 25 µM; hits with a dose series show IC50 in µM; Mycobacterium tuberculosis non-replicating, growth inhibition; higher % means a stronger effect; 0.39% of 320,000 active; in the data active = a potency from the dose series; inconclusive = inhibition mostly from about 82% at the one dose, without a potency; inactive = the rest, 99 in 100 with inhibition below about 76%;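 note: plate controls were DMSO cells for no effect and high antibiotic wells for full effect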
VEEV TC-83 Vero 10K pilot screen = further read-out of VEEV TC-83 Vero, marked with its call; inhibition, %; measured here: 10K pilot screen inhibition
Starred values were filed as active, the others as inactive; i = inactive; ? = inconclusive. The list is partial, so the mix of outcomes need not match the whole.

SMILES | VEEV TC-83 Vero | M. tuberculosis HTS | tuberculosis growth | others
COc1ccc(C(=O)NC(=S)NNC(=O)c2cnccn2)cc1 | 2.8% | -16% | -22% | VEEV TC-83 Vero 10K pilot screen=13
CCN1CCN(c2cc3c(cc2F)c(=O)c(C(=O)O)cn3C2CC2)CC1 | 1.4% | ? | ?
CCOc1cccc(/C=N/NC(=O)c2cc(C3CC3)[nH]n2)c1O | 13% | 4% | -11%
CSc1cccc(NC(=S)N(CCN(C)C)C(C)c2ccccn2)c1 (configuration not stated) | 2.4% | 32% | -10%
Nc1ncn([C@H]2C[C@H](O)[C@@H](CO)O2)c(=O)n1 | 0.5% | -2% | -6%
c1ccc2sc(N3CN(CCN4CCOCC4)CN(c4nc5ccccc5s4)C3)nc2c1 | 6.0% | 5% | 10%
CCCC(=O)Nc1ncnc2c1ncn2[C@@H]1O[C@@H]2COP(=O)(O)O[C@H]2[C@H]1OC(=O)CCC | 1.7% | -7% | -10%
O=[N+]([O-])c1ccc(-c2cnc(NO)nc2)cc1 | 0.3% | -3% | -25%
O=C(Nc1ccccc1)Nc1cccc(Cl)c1 | i | -8% | 19%
Nc1cccc([N+](=O)[O-])c1 | i | 4% | 5%
O=C1C(O)=C(O)C(=O)c2ccccc21 | 0.1% | -2% | 6%
COc1ccc(C(=O)NC(=S)NNC(=O)c2cccnc2)cc1 | 1.5% | 15% | 22%

Two records picked at random from the list so far, as already listed:
SMILES | VEEV TC-83 Vero | M. tuberculosis HTS | tuberculosis growth | others
Nc1cccc([N+](=O)[O-])c1 | i | 4% | 5%
COc1ccc(C(=O)NC(=S)NNC(=O)c2cccnc2)cc1 | 1.5% | 15% | 22%

An excerpt from above in order of SMILES length, high to low:
SMILES | VEEV TC-83 Vero | M. tuberculosis HTS | tuberculosis growth | others
CCCC(=O)Nc1ncnc2c1ncn2[C@@H]1O[C@@H]2COP(=O)(O)O[C@H]2[C@H]1OC(=O)CCC | 1.7% | -7% | -10%
CCN1CCN(c2cc3c(cc2F)c(=O)c(C(=O)O)cn3C2CC2)CC1 | 1.4% | ? | ?
Nc1ncn([C@H]2C[C@H](O)[C@@H](CO)O2)c(=O)n1 | 0.5% | -2% | -6%
COc1ccc(C(=O)NC(=S)NNC(=O)c2cnccn2)cc1 | 2.8% | -16% | -22% | VEEV TC-83 Vero 10K pilot screen=13
O=[N+]([O-])c1ccc(-c2cnc(NO)nc2)cc1 | 0.3% | -3% | -25%
O=C1C(O)=C(O)C(=O)c2ccccc21 | 0.1% | -2% | 6%
Nc1cccc([N+](=O)[O-])c1 | i | 4% | 5%

The main list resumes with the 2 entries that preceded the break.
SMILES | VEEV TC-83 Vero | M. tuberculosis HTS | tuberculosis growth | others
O=C1C(O)=C(O)C(=O)c2ccccc21 | 0.1% | -2% | 6%
COc1ccc(C(=O)NC(=S)NNC(=O)c2cccnc2)cc1 | 1.5% | 15% | 22%
Cc1ccc(-c2nc3ncccn3c2Nc2ccc3c(c2)OCO3)o1 | 0.6% | 4% | 10%
S=C(c1ccc(N2CCCC2)cc1)N1CCCCC1 | i | 12% | 29%
COC(=O)c1ccc(NC(=O)CSc2ccc(-c3ccccn3)nn2)cc1 | 4.4% | ? | ?
CCOC(=O)c1cn(CC)c2cc(N3CCN(C)CC3)c(F)cc2c1=O | i | -3% | -1%
Cc1ccc(/C(=C\CN2CCCC2)c2ccccn2)cc1 | 1.7% | 2% | 11%
O=C(CSc1ccc(-c2ccccn2)nn1)Nc1ccc(F)cc1F | 0.6% | 18% | ?
COc1cc(NS(C)(=O)=O)ccc1Nc1c2ccccc2nc2ccccc12 | ? | 44% | 60%

Screens: PubChem, Southern Research Specialized Biocontainment Screening Center
